GIV Gai3 FP = inhibitors of GIV peptide binding to Galpha-i3, primary screen, biochemical, fluorescence polarization, FITC-GIV GBA peptide, rat Galphai3; Guanine nucleotide-binding protein G(i) subunit alpha-3 (Rattus norvegicus), P08753; AID 1224905, 2016; 210,000 tested, 0.42% active; percent of control (FP), % (no concentration beside the values); 90 min; hits give low values; scaled: aluminum fluoride 0%, vehicle 100%;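 active = replicate mean at 85% of control or lower, very high polarization wells dropped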;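 also: wells of about 15 µL received 100 nL stock; the first replicate is given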
Target sequence (P08753 whole entry, looked up): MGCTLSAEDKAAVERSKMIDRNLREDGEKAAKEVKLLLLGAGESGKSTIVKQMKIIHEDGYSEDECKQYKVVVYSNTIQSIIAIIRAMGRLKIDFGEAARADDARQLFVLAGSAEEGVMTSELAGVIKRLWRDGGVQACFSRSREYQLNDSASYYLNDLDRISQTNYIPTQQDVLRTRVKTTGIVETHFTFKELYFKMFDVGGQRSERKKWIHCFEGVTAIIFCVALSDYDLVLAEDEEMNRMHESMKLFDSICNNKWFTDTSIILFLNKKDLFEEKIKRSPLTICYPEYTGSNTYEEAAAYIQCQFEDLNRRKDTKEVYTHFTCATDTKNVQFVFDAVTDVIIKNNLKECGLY
HCMV UL50-53 inh = inhibitors of HCMV UL50-UL53 interaction, biochemical, HTRF; HCMV UL50-UL53 nuclear egress complex (human cytomegalovirus); normalized percent inhibition; inhibition, % (test concentration not listed); 190,000 tested, 0.15% active; AID 1918969, 2023;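 active = both replicates at 50% or more, plus weaker picks with an unusually low signal ratio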;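 also: stock transfer was 100 nL into about 20 µL; 0% = negative control wells and 100% = wells with untagged competitor protein; inactives centre near -12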
Sa growth 42C = S. aureus growth inhibition at 42 and 30 °C, primary screen, LtaS inhibitor project, RN4220, two temperatures | relative growth, % (test concentration not listed) | OD600, 20 h, 42 °C; hits give low values | 170,000 tested, 0.53% active;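 active = growth at 42 °C up to 50% and 20 or more points under that at 30 °C, or under 10% at both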;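 also: 300 nL library stock went into each well; scaled to the means of positive and negative controls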
Sa growth 42C second temp = recorded beside Sa growth 42C, whose call it bears; relative growth, %; measured here: growth at 30 °C;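 optical density after 20 h as mean of two plates; 100% = untreated growth and lower means inhibition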
An asterisk follows results filed as active; / = no result given; & = joins results of further samples.

No.	Molecule	Sa growth 42C second temp	HCMV UL50-53 inh	GIV Gai3 FP	Sa growth 42C
1	CCN1CCC(NCc2ccccc2C(F)(F)F)CC1	121	-5	105	97
2	O=C(O)c1cccc2c1C(=O)N(C1CCCCC1)C2	63	-14&-24	98	132
3	Cc1cccn2c(=O)c(/C=C3\SC(=S)N(CCc4ccccc4)C3=O)c(N3CCCC3)nc12	/	-9	104	/
4	O=C(c1cnn2ccccc12)N1CCc2ccccc21	93	/	100	77
5	Cc1noc(C)c1CC(=O)N1CCN(S(=O)(=O)c2ccc3c(c2)OCCCO3)CC1	83	-31	/	93
6	COc1ccccc1N(C)S(=O)(=O)c1ccc(C(=O)Oc2ccc(-c3nnco3)cc2)cc1	90	-15	/	97
7	Cc1cc(C)c(S(=O)(=O)N2CCN(c3nc4ccccc4n4cccc34)CC2)c(C)c1	/	-30	101	/
8	Oc1[nH]c(=S)sc1N=Nc1ccc(F)cc1F	0	-26	182	67
9	CC(=O)N1CC=C2C(C#N)=C(N)C(C#N)(C#N)C(C)C2C1 (stereo not drawn)	80	-42	98	92
10	Cc1ccc(NC(=O)C(CC(C)C)N2Cc3ccccc3C2=O)cc1F (stereo not drawn)	101	/	97	117
11	O=C(Sc1ccccn1)N1c2ccccc2Sc2ccccc21	82	/	105	128
12	COc1ccc(CCNC(=O)c2ccc3c(c2)nc2n3CCC(C)C2)cc1OC (stereo not drawn)	88	/	103	92
13	OCc1cnc(SCc2cccc(F)c2)n1Cc1ccc(F)cc1	108	/	106	142
14	CN1C(=O)C(CC(=O)Nc2ccc3c(c2)Cc2ccccc2-3)N(C)C1=O (stereo not drawn)	98	-8	107	115
15	Nc1c(NCCN2CCCC2)c2ccccc2oc1=O	75	-31	103	82

Remaining list, next part:
No.	Molecule	Sa growth 42C second temp	HCMV UL50-53 inh	GIV Gai3 FP	Sa growth 42C
16	CCN(C(=O)Cn1c(=O)n2nc(CCn3nc(C)cc3C)nc2c2ccccc21)c1cccc(C)c1	93	/	95	105
17	Cc1ccc2[nH]cc(NC(=O)NCCc3ccccc3)c(=O)c2c1	93	-7	98	97
18	O=C(COC(=O)c1ccco1)Nc1ccccc1	94	-9	/	115
19	Cc1ccc(-n2c3nc4ccccc4nc3c3c(=N)oc(C)nc32)cc1	95	-11	/	113
20	CN(C(=O)/C=C/c1ccco1)c1ccccc1C(=O)O	89	-35	/	95
21	O=C(CSc1ncnc2sc3c(c12)CCCC3)c1cccs1	105	23	/	104
22	Cn1c(-c2ccccc2)cnc1NCc1ccccc1	93	/	101	100
23	Clc1ccccc1-c1nnc2sc(Nc3ccccc3)nn12	96	15	101	99
24	Cc1cc(C)cc(NC(=O)C2CCN(C(=O)c3cnn(-c4ccccc4)c3-n3cccc3)CC2)c1	84	-8	102	91
25	CCOC(=O)c1cnc(Nc2nc3ccccc3o2)nc1-c1ccccc1	90	-8	98	106
26	CC(C)=CCC/C(C)=N\n1cnnc1	83	-31	/	119
27	CCN(CC)c1cc(C)c2cc(NC(=O)c3ccc4c(c3)c(C)c(C)n4C)ccc2n1	/	-4	102	/
28	Cc1ccc(C)c(NC(=O)CSc2c(C)cnc3c2c(=O)n(C)c(=O)n3C)c1	87	/	104	141
29	CCn1nc(C)c2c(-c3ccccc3)cc(=O)n(C(C)C(=O)Nc3cccc(F)c3)c21 (stereo not drawn)	93	/	106	112
30	CN(C)C(CC(=O)Nc1ccc(Cl)c(Cl)c1)C(=O)O (stereo not drawn)	82	-26	101	85

(continued)
No.	Molecule	Sa growth 42C second temp	HCMV UL50-53 inh	GIV Gai3 FP	Sa growth 42C
31	Cc1ccc(-c2c(C#N)c(SCC(=O)c3ccc(O)c(O)c3)nc3c2CCCC3)o1	/	-1	102	/
32	Cn1c(=O)c(-c2noc(C(=O)NCCN3CCCC3)n2)nn(-c2ccc(F)cc2)c1=O	/	-86	96	/
33	CC1CCCN(CCCNC(=O)c2ccc3c(c2)N(Cc2ccc(Cl)cc2)C(=O)c2ccccc2S3(=O)=O)C1 (stereo not drawn)	62	6	105	89
34	COC(CNC(=O)c1csc2c1CCCC2)OC	91	/	105	103
35	CCN(CC)C(=O)c1sc(NC(C)=O)c(C(=O)OC)c1C	117	0	86	87
36	N#Cc1cnc(SCc2ccccc2)nc1N	96	-14	140	114
37	COc1cccc(C2NC(CC(C)C)(C(=O)O)C3C(=O)N(c4ccc(F)cc4)C(=O)C23)c1 (stereo not drawn)	88	-31	98	93
38	C=CCNC(=S)C(=O)Nc1ccccc1	82	-7	/	89
39	C/C(=N\OCC(=O)NC12CC3CC(CC(C3)C1)C2)c1cc2ccccc2o1	85	-30	/	60
40	O=C(O)C1C2C=CC(CC2)C1C(=O)O (stereo not drawn)	85	-5	93	114
41	C=CCNC(=O)CCN1N=C(c2ccc(C)cc2)CCC1=O	89	/	100	139
42	COc1ccc(CNC(=O)CN2C(=O)CSc3ccc(S(=O)(=O)N4CCOCC4)cc32)c(OC)c1	95	/	105	117
43	COc1ccc(NC(=O)CC2C(=O)NCCN2C(=O)c2ccc(C(C)(C)C)cc2)cc1 (stereo not drawn)	95	-14	104	107
44	O=C(COC(=O)C1Cc2ccccc2CN1C(=O)c1ccco1)Nc1ccc(F)cc1 (stereo not drawn)	91	3	/	112
45	CC1=C(C(=O)Nc2ccc(Cl)cc2)C(c2ccccc2C)n2ncc(C(=O)Nc3ccc(C)cc3)c2N1 (stereo not drawn)	91	-8	100	89

Further entries
No.	Molecule	Sa growth 42C second temp	HCMV UL50-53 inh	GIV Gai3 FP	Sa growth 42C
46	COc1ccccc1-c1nnn(CC#N)n1	83	-24	101	108
47	COC(=O)c1ccc(Cl)cc1NC(=O)N(Cc1ccc(C)o1)C1CCN(C(C)=O)CC1	68	/	102	96
48	CCN(CC)CCCNc1sc(S(=O)(=O)c2ccccc2)nc1S(=O)(=O)c1ccc(Cl)cc1	80	-20	97	101
49	O=C(Nc1ccc2oc(-c3cccnc3)nc2c1)c1ccc(-c2cccc(Cl)c2)o1	75	-63	103	98
50	Nc1nc2ccccc2n1CCN1CCCC1	88	-10	104	91
51	Cc1ccccc1OCC(=O)Nc1ccc2nc(SCc3ccccc3)sc2c1	92	-9	98	103
52	CC(C)(Oc1ccc(C2CC2(Cl)Cl)cc1)C(=O)O (stereo not drawn)	/	-1&-30&-7	94	/
53	Cc1sc(-n2cccc2CNCc2ccc(OC(C)C)cc2)c(C(=O)O)c1C	/	-24	106	/
54	O=C(NC1CCCCC1)NC12CC3CC(CC(C3)C1)C2	95	/	97	99
55	CNC(=O)CCCc1nnc2n(C)c(=O)c3sccc3n12	90	/	98	86
56	N#Cc1ccc(OCC(O)CNCCC2=CCCCC2)cc1 (stereo not drawn)	99	-11	/	94
57	COc1ccc(N=Cc2nc(-c3ccccc3Br)oc2O)c([N+](=O)[O-])c1	/	-29	101	/
58	COc1ccc(CCNC(=O)C2CCCN2S(=O)(=O)c2cccc3nsnc23)cc1OC (stereo not drawn)	86	-101	103	98
59	S=C(Nc1cccc2ccccc12)NN1CCOCC1	97	-15	103	99
60	COc1ccccc1NC(=O)C1=C(C)NC(=O)NC1c1ccco1 (stereo not drawn)	90	-12	/	110

(further entries)
No.	Molecule	Sa growth 42C second temp	HCMV UL50-53 inh	GIV Gai3 FP	Sa growth 42C
61	O=C(CC1COc2ccccc2O1)NCCc1ccccc1 (stereo not drawn)	72	-10	105	123
62	CN1/C(=C\C(=O)CSc2nc3ccccc3o2)C(C)(C)c2ccccc21	91	-20	/	95
63	Cc1ccc2occ(CC(=O)N3CCC(Cc4ccccc4)CC3)c2c1	/	7	104	/
64	Cc1cccc(N2C(=O)CSC23C(=O)N(CN2CCOCC2)c2ccccc23)c1 (stereo not drawn)	85	-47	107	84
65	O=C1CC/C(=C\C(=S)N2CCOCC2)N1	101	5	/	102
66	Clc1ccc(CNCc2ccc3nccnc3c2)cc1	/	-73	104	/
67	COc1ccccc1C(=O)N(CCN(C)C)c1nc2ccc(Cl)cc2s1	/	-2	106	/
68	CCc1ccccc1NC(=O)Cn1cc(S(=O)(=O)NC)c(S(=O)(=O)NC)c1	/	-8	109	/
69	CC(=O)Nc1ccc(NC(=O)C2CC(=O)NC(N3CCN(c4ccccc4F)CC3)=N2)cc1 (stereo not drawn)	/	-6	103	/
70	O=C(NCCO)c1ccc(C(=O)NCCO)cc1	89	-13	/	103
71	Cc1nc2scc(C)n2c(=O)c1S(=O)(=O)NC1CCCCC1	92	-8	99	91
72	CC(C)c1ccccc1N=Cc1ccc[nH]1	98	-6	/	93
73	O=C(Cn1cc(C(F)(F)F)ccc1=O)N1CCc2ccccc21	78	-10	/	103
74	O=C(Nc1ccccc1-c1ccccc1)NC1CCN(CC(=O)N2CCOCC2)CC1	92	-4	97	111
75	O=C(CN1C(=O)c2ccccc2C1=O)c1ccc(F)cc1	90	-63	102	87

Remaining list, next part
No.	Molecule	Sa growth 42C second temp	HCMV UL50-53 inh	GIV Gai3 FP	Sa growth 42C
76	CCC(CC)c1nn2c(=O)cc(COc3ccc(NC(=O)c4ccccc4C)cc3)nc2s1	84	-14	103	115
77	Cc1ccc(C)c(CN2C(=O)c3ccccc3S(=O)(=O)c3ccc(C(=O)Nc4cc(F)ccc4F)cc32)c1	97	-31	96	107
78	COc1ccc(NC(=O)CN2CCC(c3nc4ccc(Cl)cc4[nH]3)CC2)c(OC)c1	35	2	101	61
79	COc1ccc(Br)cc1CNC(=O)CN1C(=O)CCCc2ccccc21	91	/	96	86
80	CCOC(=O)c1oc2ccccc2c1N=Cc1c(O)n(CCOC)c(=S)[nH]c1=O	73	-36	/	95
81	CC(C)N(C(=S)Nc1cccnc1)c1ccccc1	94	15	/	101
82	Cc1nn(C)c(C)c1CS(=O)(=O)c1ccccc1	/	-1	103	/
83	COc1ccc(C2CC(=O)c3cnc4c(-c5ccc(F)cc5)c(C)nn4c3C2)cc1OC (stereo not drawn)	82	-13&-20	107&96	96
84	COc1c(F)c(F)c(/C=C/CN2CCOCC2)c(F)c1F	105	-20	100	96
85	COc1ccc(-c2noc(N3CCCC(C(=O)NCCc4ccc(OC)c(OC)c4)C3)n2)cc1 (stereo not drawn)	75	/	98	76
86	Cc1cc(=O)n(CCCO)c(O)c1C#N	96	7	105	93
87	Cc1cccc(N2CCN(C3=C(c4ccccc4)C(=O)c4ccccc43)CC2)c1C	87	-15	102	104
88	CCc1sc(NC(=O)C2c3ccccc3Oc3ccccc32)nc1-c1ccccc1	/	-12	97	/
89	C=CC[n+]1ccccc1/C=N/O	92	/	102	92
90	Cc1cc(C(=O)CC2=C(O)CC(C)(C)CC2=O)c(C)n1Cc1cccs1	93	-30	/	113

Continuation.
No.	Molecule	Sa growth 42C second temp	HCMV UL50-53 inh	GIV Gai3 FP	Sa growth 42C
91	CCCc1nnc(SCC(=O)NC2CC3CCC2C3)o1 (stereo not drawn)	87	-3	100	93
92	CC(C)(C)c1ccc(C2CC(=O)c3cnc(N)nc3C2)cc1 (stereo not drawn)	95	13	/	87
93	COc1ccc(CCNC(=O)Cn2c(=O)nc(-c3ccccc3)c3ccccc32)cc1OC	96	/	110	104
94	CCN(C(=O)CCc1nc(-c2ccccc2F)no1)c1cc(OC)ccc1OC	84	2	102	91
95	Cn1cc(/C=C2\SC(=O)NC2=S)c2ccccc21	112	-29	111	120
96	COc1cccc(C(=O)Nc2ccccc2OCc2cc(=O)n3ccccc3n2)c1	93	/	102	106
97	CCN(CC)S(=O)(=O)c1ccc(/C=C/C(=O)Nc2cccc(C)c2)cc1	82	-24	/	117
98	CC(=O)OCC12COC(C)C(C(C)=CC1C)C2C (stereo not drawn)	83	7	99	90
99	COc1ccc(NC(=O)CCc2ccc(C)o2)cc1	100	4	99	102
100	CCc1nc(-c2ccc(C(=O)NCC(=O)NC3CCCCC3)cc2)no1	/	-34	106	/
101	COc1ccccc1/C=N/n1c(SCC(=O)O)nnc1C1CCCCC1	90	-20	/	89
102	CC(C)CCNS(=O)(=O)c1ccc2[nH]c(=O)oc2c1	98	0	106	77
103	Cc1csc(NC(=O)CCCC(=O)O)c1-c1nc2ccccc2s1	88	-15	104	80
104	CCOCCOC(=O)C1=C(C)NC2=C(C(=O)CC(c3ccc(Cl)cc3)C2)C1c1cc2c(cc1Br)OCO2 (stereo not drawn)	/	20	106	/
105	CC(CC(=O)N(C)Cc1ccccc1)S(=O)(=O)c1ccc2c(c1)SCC(=O)N2 (stereo not drawn)	81	/	115	90

Another view of part of the listing above.
103) Cc1csc(NC(=O)CCCC(=O)O)c1-c1nc2ccccc2s1
96) COc1cccc(C(=O)Nc2ccccc2OCc2cc(=O)n3ccccc3n2)c1
95) Cn1cc(/C=C2\SC(=O)NC2=S)c2ccccc21
99) COc1ccc(NC(=O)CCc2ccc(C)o2)cc1
102) CC(C)CCNS(=O)(=O)c1ccc2[nH]c(=O)oc2c1

screen / no.	103	96	95	99	102
Sa growth 42C second temp	88	93	112	100	98
HCMV UL50-53 inh	-15	/	-29	4	0
GIV Gai3 FP	104	102	111	99	106
Sa growth 42C	80	106	120	102	77

Further records.
No.	Molecule	Sa growth 42C second temp	HCMV UL50-53 inh	GIV Gai3 FP	Sa growth 42C
106	Cc1ccc(NC(=O)c2cnc(SCC(=O)NCc3ccc4c(c3)OCO4)n(C)c2=O)cc1	85	-26	107	112
107	CCN1CCSc2ccc(C(=O)NC3CC3)cc21	84	/	98	89
108	CNC(=O)c1ccc2nc(CCc3ccccc3)oc2c1	90	/	104	97
109	Cc1c(O)ccc(C(=O)CN2CCN(Cc3ccccc3)CC2)c1O	82	-16	106	94

Screens from PubChem BioAssay.

Compounds were not picked by outcome; about 0.8% have a hit in one of these screens.
